Source: PubChem (PCMD)
Biofilm kill mix = clotrimazole potentiators killing C. albicans biofilm, primary screen, 4-compound mixtures; C. albicans biofilm persisters + clotrimazole, fluorescence viability; primary screen in compound mixtures of four per well; inhibition, % at 7.6 µM; 120,000 tested, 0.02% active;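 active = inhibition above 30.3% in the primary screen of four-compound pools, then above 30% when the compound was retested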;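 note: compounds exposed to preformed 24 h biofilms for 48 h; the number belongs to the whole pool; some results filed as inactive read as strong as hits; inactives centre near 12; 0% = biofilm with clotrimazole alone and 100% = kill control; retested singly at about 60 µM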
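Test system: C. albicans CAF4-2 wild-type biofilms; buffer or medium: RPMI/MOPS medium, pH 7.0; schedule: 24 h biofilm formation, then 48 h compound exposure, 37 °C; detection: Alamar Blue fluorescence; measure: percent inhibition of biofilm viability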
* = called active by the depositor. A portion of the library; count on the stated rates, not on these rows.

canonical_smiles	Biofilm kill mix
O=C(O)CCC(=O)/C=C/c1ccccc1	12.6
Cc1ccc(NC(=O)CSc2nc(C)c(Cc3ccccc3)c(=O)[nH]2)cc1C	12.1
CCOC(=O)C1CCCN(C(=O)/C=C/c2ccc(Cl)cc2)C1 (centres undefined)	10.6
O=c1oc2ccccc2cc1-c1csc(Nc2nc3ccc(F)cc3s2)n1	11.8
COc1ccc2nc(Nc3nc(CSc4ccc(C)cc4)cc(=O)[nH]3)nc(C)c2c1	12.8
O=C(Nc1ccc(-c2csc(Nc3ccccc3)n2)cc1)c1cc([N+](=O)[O-])cc(C(F)(F)F)c1	3.3
CC1(C(=O)NCC2CCCO2)Oc2cccnc2NC1=O (centres undefined)	-1.4
CCC(=O)Nc1cc(-c2cc3ccccc3oc2=O)ccc1OC	0.9
CCCNC(=O)Cn1c(-c2ccc(F)cc2)cc(C(=O)OCC)c1C	-6.5
O=C(COC(=O)Cc1ccccc1F)Nc1cccc(F)c1	-1.4
CC(C)(C)c1cc(CSC(=S)NC2CCS(=O)(=O)C2)c(Br)c(C(C)(C)C)c1 (centres undefined)	11.7
Cc1nonc1OCCN1CCN(c2ccccc2[N+](=O)[O-])CC1	11.9
Oc1c(C=C2N=c3ccccc3=N2)sc(=S)n1-c1ccc2ccccc2c1	17.7
O=C(NCCC1=CCCCC1)Nc1ccc2nsnc2c1	16.1
O=C(COc1cccc(F)c1)Nc1ccc2[nH]c(=O)[nH]c2c1	8.4
Cc1ccc(NC(NC(=O)c2ccccc2[N+](=O)[O-])C(Cl)(Cl)Cl)cc1 (centres undefined)	8.0
CCOc1ccc(N=c2cc(-c3ccc(OC)cc3)oc3ccccc23)cc1	6.6
O=C(NCc1cccs1)C(=O)c1c[nH]c2ccccc12	9.3
CC(C(=O)NN)n1nnc(N2CCOCC2)n1 (centres undefined)	11.5
OCC1CCCCN1C(=S)Nc1cccc(Cl)c1 (centres undefined)	-22.1
Cc1ccc(NC(=O)Cn2c(O)c(N=NC(N)=O)c3ccccc32)cc1	22.5
Cc1nnc(SCC(=O)N(C)CC(=O)Nc2ccc(F)cc2)n1Cc1ccccc1	-9.2
COc1ccc(/C=N/n2c(C)nc3sc(C)c(C)c3c2=O)cc1	15.5
CCOc1ncccc1C(=O)OCC(=O)c1ccc(OC)c(OC)c1	18.9
COC(=O)C1=C(C)NC(C)=C(C(=O)OC)C1c1ccco1	18.4
Cc1cc2c(cc1C)/C(=N/NC(=O)c1ccccn1)CCC2	15.4
O=S(=O)(c1ccccc1)N1CCN(C(=S)NCc2ccccc2)CC1	8.5
C=CC[C@H]1CC(Cc2ccccc2)=C[C@H](CC=C)N1	10.7
CC(=O)Nc1cccc(/C(C)=N\NC(=O)c2ccc(Cn3nc([N+](=O)[O-])c(Cl)c3C)o2)c1	11.3
OC(COCc1cccs1)CN1CCN(c2ccccc2Cl)CC1 (centres undefined)	11.8
CC(C)(C=O)C1=CC(=O)c2ccccc2C1=O	16.1
COc1ccc(CCNC(=S)NCc2ccc(Cl)c(Cl)c2)cc1OC	-1.0
CCC(Oc1ccccc1)C(=O)Nc1ccsc1C(=O)OC (centres undefined)	-8.4
COc1ccc(Oc2ncnc3sccc23)cc1	11.2
O=C(COC(=O)c1ccc(Cl)c(Cl)c1)Nc1cccnc1Cl	6.8
Cc1oc2ccc(OCc3ccc(Cl)cc3)cc2c1C(=O)O	31.3
Cc1nc2cc(C(=O)OCC(=O)NC(C)C(C)C)ccc2n1-c1ccccc1 (centres undefined)	7.0
CN(C)c1ccc(/C=C(\C#N)c2ccccc2)cc1	31.0
O=C(c1cn(-c2ccccc2)nc1-c1ccc(Cl)cc1)N1CCOCC1	19.9
CC(=O)Oc1ccc(NC(=O)CCC2CCCCC2)c(C(=O)O)c1	20.1
CC1(C)C2([N+](=O)[O-])CN3CC1([N+](=O)[O-])CN(C2)C3c1ccc(O)c(O)c1 (centres undefined)	23.2
O=C(O)c1ccc(N/N=C/c2ccc3ncccc3c2)cc1	-3.9
Cc1ccc(CN2CCN(CC(=O)N/N=C/c3ccc(C)o3)CC2)cc1	25.6
O=C(/C=C/c1ccccc1)NC(=S)NNC(=O)c1ccco1	6.0
CN(C)C(=O)CSc1nc(-c2ccccc2)nc2c1CCCC2	13.0
Cc1cc(C(=O)NNC(=O)NC(C)C)no1	3.4
O=C(Nc1ccc(N2CCOCC2)cc1)c1cccnc1	9.2
Cc1cccc(-n2c(Cc3ccccc3)n[nH]c2=S)c1	-8.9
CCOc1ccc2c(c1)C(C)=CC(C)(C)N2C(=O)Nc1ccccc1F	17.3
Cc1[nH]c(=O)c(C(=O)c2ccccc2O)cc1C(=O)O	-4.5
Cc1csc(NC(=O)CSc2ccc3nnc(CCNS(=O)(=O)c4ccccc4)n3n2)n1	9.5
OC(COc1ccccc1)CN1CCOCC1 (centres undefined)	13.0
O=C(COC(=O)c1ccccc1Nc1ccccc1)Nc1ccccc1	6.1
CCC(C)NC(=O)COC(=O)c1ccc(Cl)cc1O (centres undefined)	23.9
O=C(CNC(=S)N(CCCN1CCOCC1)Cc1cccs1)NCCN1CCOCC1	15.3
CCCn1c(NC(=O)C23CC4CC(CC(O)(C4)C2)C3)nc2ccccc21	17.6

Sorted by heavy-atom count (low to high): three of the compounds above.
canonical_smiles	Biofilm kill mix
OC(COc1ccccc1)CN1CCOCC1 (centres undefined)	13.0
Cc1[nH]c(=O)c(C(=O)c2ccccc2O)cc1C(=O)O	-4.5
CCCn1c(NC(=O)C23CC4CC(CC(O)(C4)C2)C3)nc2ccccc21	17.6

Going on with the list:
canonical_smiles	Biofilm kill mix
Cn1c(N)c(C(=O)CSc2nnc(-c3ccccc3F)n2N)c(=O)n(C)c1=O	10.9
O=C(CCNS(=O)(=O)c1ccc(Br)cc1)NCc1cccs1	14.1
O=C(CCNC(=O)c1ccccc1Cl)N/N=C\c1ccc(O)cc1	19.2
Cc1ccc(S(=O)(=O)Cc2cc(-c3ccc(Cl)cc3)no2)cc1	12.7
COC(=O)Cn1c(=NC(=O)c2nc3ccccc3s2)sc2cc(S(N)(=O)=O)ccc21	9.1
Cc1ccc([N+](=O)[O-])cc1NC(=O)Nc1onc(C)c1C	14.9
CCN(CC)CCN(C(=O)c1cccc(N2C(=O)CCC2=O)c1)c1nc2cc3c(cc2s1)OCO3	19.6
C=CCn1cccc(C(=O)Nc2ccc(OCC)cc2)c1=O	8.8
NC(N)=Nc1nc2ccccc2o1	19.2
COc1cc(CN(C)C)cc(C=O)c1O	18.6
COC(=O)C1C(O)C(C)C(O)C(C)(O)/C=C\C=C(/C)C(=O)Nc2c(C)c(OC(C)=O)c3c(c2O)C(=O)C(C)=C2OCOC(=C23)/C(C)=C/C(C)(O)C(O)C(C)C1O (centres undefined)	23.2
COC(=O)c1ccc(CN2CCN(Cc3ccccc3)C(CCO)C2)cc1 (centres undefined)	14.2
COc1ccc([C@@H]2Sc3cc(OC)ccc3N(CCN(C(C)C)C(C)C)C(=O)[C@H]2OC(C)=O)cc1	19.8
O=C1CCNc2ccc(-c3ccccc3)cc21	12.3
O=C(CCCN1C(=O)c2cccc3cccc(c23)C1=O)Nc1ccon1	16.0
COP(=O)(CN(Cc1ccccc1)C(=S)Nc1c(C)cccc1C)OC	5.4
CC(OC(=O)C12CC3CC(CC(O)(C3)C1)C2)C(N)=O (centres undefined)	1.6
CCOC(=O)Cc1c(Cl)c2ccccc2[nH]c1=O	15.8
CSc1nnc(-c2ccccc2)c(-c2ccccc2)n1	14.3
COc1ccc(-n2c(=O)c3ccccc3c3ccccc3c2=O)cc1	-9.1
O=C(Nc1ccccc1)c1c2c(nc3ccccc13)CCCC2	2.1
COc1ccc2c([N+](=O)[O-])c(Cl)[nH]c2c1	11.7
C/C(=N\N1CCN(Cc2ccccc2Cl)CC1)c1ccc(F)cc1	21.6
C=CCNC(=S)NCCO	20.4
CC(=O)c1ccc(NS(=O)(=O)c2ccc(C(C)(C)C)cc2)cc1	16.1
O=C(CSc1nc2ccc(Cl)cc2[nH]1)N1CCN(C(=O)c2ccco2)CC1	-3.5
CCCCC(=O)N1CCN(c2ccc(OC)cc2[N+](=O)[O-])CC1	8.1
O=C(Cn1nc(C(F)(F)F)cc1C1CC1)Nc1ccccc1F	11.0
O=C(c1ccc(NC2=NC3CS(=O)(=O)CC3S2)cc1)N1CCN(C(=O)c2ccco2)CC1 (centres undefined)	14.4
O=C(CN1C(=O)c2cccc([N+](=O)[O-])c2C1=O)N1CCN(c2ccc(F)cc2)CC1	16.6
O=C(COC(=O)c1ccc(O)cc1)Nc1cc(C(F)(F)F)ccc1Cl	10.1
C=CCN(c1ccccc1Cl)S(=O)(=O)c1cc(C(=O)N2CCCC2)ccc1Cl	-3.4
O=C(NC(=S)N(CCc1ccccc1)CCc1ccccc1)c1ccco1	11.4
CC(=O)Nc1ccc(S(=O)(=O)NCc2ccccn2)cc1	5.6
O=[N+]([O-])c1cc(C(F)(F)F)ccc1NCCCCNS(=O)(=O)c1ccc(Cl)cc1	11.3
CC(=O)Nc1cccc(-n2nnc(SCC(=O)c3ccccc3)n2)c1	23.5
O=C(NCCCOc1cccc(CN2CCCCC2)c1)c1ccc(Cl)c(Cl)c1	8.9
N#Cc1c2c(c(NCCOCCO)n3c1nc1ccccc13)CCCC2	15.5
O=[N+]([O-])c1ccc(-c2ccc(S(=O)(=O)NCCN3CCCC3)cc2)cc1	11.1
COc1ccc(Cl)cc1NS(=O)(=O)c1ccc(OC)c(OC)c1	14.9
O=C1CC(NN2CCCCC2)C(=O)N1c1ccccc1 (centres undefined)	6.4
O=C(COC(=O)C1CC2C=CC1C2)NCc1ccc(F)cc1 (centres undefined)	6.9
CC(C)c1ccccc1NC(=O)COC(=O)C1(C)CC1(Cl)Cl (centres undefined)	15.7
O=C(COc1ccccc1)Nc1ccccc1Cl	10.2
O=C(COc1ccccc1/C=C\c1[nH]c(=O)[nH]c(=O)c1[N+](=O)[O-])Nc1ccccc1	8.5
Cc1[nH]c(=O)[nH]c(=O)c1/C=N/NC(=O)CCNC(=O)OC(C)(C)C	11.4
COC(=O)c1cc(NS(=O)(=O)c2ccc(C(C)C)cc2)ccc1N1CCOCC1	23.2
CC1CCCC(C)N1/N=C/c1ccc(C(=O)O)cc1 (centres undefined)	19.7
CCCS(=O)(=O)NCCc1csc(-c2ccc(OC)c(OC)c2)n1	21.8
Cc1cc(C)cc(NC(=O)NC2CCN(CC(=O)Nc3cccc(Cl)c3C)CC2)c1	5.3
CCN1CCN(Cc2c(O)ccc3c2O/C(=C\C=C\c2ccccc2)C3=O)CC1	8.3
O=C(NCCCN1CCCCCC1)C1CCCN(S(=O)(=O)c2cccc3nsnc23)C1 (centres undefined)	3.1
COCCOC(=O)C1=C(C)NC(=O)NC1c1ccco1 (centres undefined)	10.3
CCOC(=O)c1cc[nH]c1C	2.1
N#CCC(=O)NNC(=S)NC(=O)C(c1ccccc1)c1ccccc1	10.0
Cc1cccc(N(CC(=O)NC(C)(C)C)C(=O)CS(=O)CC(=O)Nc2ccc3c(c2)OCO3)c1 (centres undefined)	12.7

Later entries:
canonical_smiles	Biofilm kill mix
CCOC(=O)c1ccc(N2C(=O)CC(NNC(=O)c3ccc(Br)s3)C2=O)cc1 (centres undefined)	29.9
O=C(N/N=C/c1ccccc1Cl)c1[nH]c2ccc(Br)cc2c1-c1ccccc1	13.8
COc1ccc2c3c(cccc13)C(=O)N(O)C2=O	12.9
O=C(N/N=C/c1ccc(N2CCOCC2)s1)c1ccc(NS(=O)(=O)c2cccs2)cc1	0.9
CC1(C(=O)NC(=S)N(CCC#N)Cc2cccnc2)CC1(Cl)Cl (centres undefined)	13.9
CS(=O)(=O)N1CCC(Oc2ccccc2C(=O)NCCCc2cccnc2)CC1	5.1
COc1ccc(C(=O)Nc2ccc(N3CCCCC3)cc2)cc1Br	6.4
CCN1C(=O)/C(=C/c2cnn(CC)c2C)SC1=S	17.8
C=CCSc1nnc(CNC(=O)c2ccccc2C)n1C(C)C	9.3
O=C(Nc1ccccc1)c1cc2ccccc2c(=O)s1	5.6
CCOC(=O)c1ccc2c(c1)nc(C)n2CC	20.7
Cc1cn(C(=O)c2ccccc2)c(=S)n1-c1ccc(Br)cc1	10.0
CNCc1c(C)nn(-c2ccccc2)c1C	13.8
COc1cc(C(F)(F)F)nc2ccc(C#CCOC(=O)Nc3ccccc3)cc12	18.4
CCOC(=O)c1ccc(NC(=O)NC2CC3CCC(C2)N3C(=S)NC)cc1 (centres undefined)	3.3
O=C(COc1ccc(F)cc1)N1c2ccccc2CCc2ccccc21	15.2
CCC(=O)NNc1nc2c(C)cc(C)cc2s1	14.8
CCCCCC(C)NC(=S)NC(=O)c1cc(S(=O)(=O)N2CCOCC2)ccc1C (centres undefined)	-4.0
O=C(NC12CC3CC(CC(C3)C1)C2)OCCNC1CCCCC1	-0.5
Cc1cc(C)n(C(=O)CNC(=O)/C=C/c2ccccc2)n1	20.0
COc1ccc(CNCCC(c2ccc(F)cc2)c2ccc(OC(C)C)cc2)cc1OC (centres undefined)	8.9
CN(C)CCSc1nnc2[nH]c3ccccc3c2n1	-15.1
CC(C)(C)c1cc(-c2n[nH]c(=S)n2-c2ccccc2F)n[nH]1	24.1
Cn1c(CN2CCC(C(N)=O)CC2)c(C#N)c2ccccc21	19.2
Cc1cccn2c(=O)c(/C=C(\C#N)C(N)=O)c(Oc3ccccc3)nc12	24.5
